# p53 HeLa – nuclear p53 accumulation, HPV+ cells – imaging, p53-positive nuclei imaging, 24 h, 48 h (AID 1508601) | p53-positive nuclei imaging, 48 h; active compounds read high; some inactives read as strong as hits | p53-positive nuclei, normalised, % at 11 µM unless noted | 5,700 tested, 1% active;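 active = mean of two plates above 50% at 24 h or at 48 h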;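 note: HPV-positive HeLa cells with a fluorescent p53 stability reporter; 0% = vehicle and 100% = proteasome inhibitor control; doses worked out from stocks diluted about 900-fold with the highest of each compound shown; many of its hits are not listed in these tables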
# p53 HeLa cells 24 h – recorded beside p53 HeLa, whose call it bears; nuclei count, normalised, %; measured here: cell number at 24 h;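 100% = vehicle wells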
# p53 HeLa p53 24 h – also measured in p53 HeLa; calls as there; p53-positive nuclei, normalised, %; measured here: p53 positive nuclei at 24 h;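 0% = vehicle and 100% = positive control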
# p53 HeLa cells 48 h – further read-out of p53 HeLa, marked with its call; nuclei count, normalised, %; measured here: cell number at 48 h;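 100% = vehicle wells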
# * marks the source's active call; other numbers are inactive results; [ ] = another dose, or the depositor's remark.
SMILES,p53 HeLa,p53 HeLa cells 24 h,p53 HeLa p53 24 h,p53 HeLa cells 48 h
COc1ccc(Cl)cc1C(=O)NCCc1ccc(S(=O)(=O)NC(=O)NC2CCCCC2)cc1,-0.2[3.7 µM],116,-0.4,110
O=C(Nc1nnc(-c2ccco2)o1)c1cc(-c2ccccc2)nc2ccccc12,-0.1,107,-0.1,103
C[C@@]1(C(=O)Nc2ccc(F)nc2)CCCN1c1nc(Nc2cc(C3CC3)[nH]n2)c2cccn2n1,-0.1,46,0.1,24
NC(N)=NC(N)=NCCc1ccccc1,0.1,113,-0.1,112
COc1cc(OC)c(NC(=O)Nc2cc(C)on2)cc1Cl,0.3,108,0.2,101
N#CC(=Cc1ccc(O)c(O)c1)C(=O)NCc1ccccc1,-0.6[3.7 µM],99,-0.3,100
CC(C)(C(=O)NCC(F)(F)C(F)(F)F)C(=O)NC1C(=O)Nc2ccccc2-c2ccccc21 (stereo not given),-0.1[3.7 µM],107,-0.1,113
CCS(=O)(=O)N1CC(CC#N)(n2cc(-c3ncnc4[nH]ccc34)cn2)C1,-0.1,108,-0.1,111
C=C1C(CO)C(O)CC1n1cnc2c(=O)[nH]c(N)nc21 (stereo not given),0.0[3.7 µM],108,-0.4,105
COC(=O)C1C(O)CCC2CN3CCc4c([nH]c5ccccc45)C3CC21 (stereo not given),0.0,98,0.0,100
CN(C)CCCOc1nn(Cc2ccccc2)c2ccccc12,0.1[3.7 µM],108,-0.2,102
CC1O[C@@H](OC2C(Oc3cc(O)c(C(=O)CCc4ccc(O)cc4)c(O)c3)OC(CO)C(O)C2O)C(O)C(O)C1O (stereo not given in full),-0.2[3.7 µM],106,-0.6,104
O=C(Oc1ccccc1C(=O)O)c1ccccc1O,-0.1[3.7 µM],99,-0.2,98
COc1cc(Br)c(Nc2nc(-c3c(C)nc4ncccn34)cs2)c(Br)c1,-0.1[3.7 µM],74,-0.3,73
COc1cc(C=C(C#N)C(=O)Nc2nnc(C(F)(F)F)s2)ccc1OCc1ccc(C(F)(F)F)cc1C(F)(F)F,-0.1,114,0.1,114
OC(CNCC(O)[C@H]1CCc2cc(F)ccc2O1)[C@@H]1CCc2cc(F)ccc2O1 (stereo not given in full),0.1[3.7 µM],105,0.0,108
Nc1ncnc2c1c(COc1cccc(Cl)c1)nn2C1CCOCC1,0.0,105,-0.2,103
N#CC(=C(N)Sc1ccc(N)cc1)c1ccccc1C(F)(F)F,-0.5[3.7 µM],107,-0.4,100
O=C(O)C(Cc1ccccc1[N+](=O)[O-])=NNC1=NC(c2ccc(Cl)c(Cl)c2)CS1 (stereo not given),-0.1[3.7 µM],115,-0.3,108
CC(=O)OC1C[C@@H]2CC[C@@H]3[C@@H](CC[C@]4(C)C(OC(C)=O)C([N+]5(C)CCCCC5)C[C@@H]34)[C@@]2(C)CC1N1CCCCC1 (stereo not given in full),-0.6[3.7 µM],104,-0.3,109
C[C@]12C=CC(=O)C=C1CC[C@@H]1[C@H]2C(=O)C[C@@]2(C)[C@H]1CC[C@@]2(O)C(=O)CO,-0.1[3.7 µM],105,-0.2,110
O=C(OC1Cc2c(O)cc(O)cc2OC1c1cc(O)c(O)c(O)c1)c1cc(O)c(O)c(O)c1 (stereo not given),0.0,103,-0.1,105
C=C1C(=O)OC(CCCCCCCC)C1C(=O)O (stereo not given),0.1,106,-0.1,107
CC(C)CC(NC(=O)C(CCc1ccccc1)NC(=O)CN1CCOCC1)C(=O)NC(Cc1ccccc1)C(=O)NC(CC(C)C)C(=O)[C@@]1(C)CO1 (stereo not given in full),104*[3.7 µM],36*,117*,31*
NC(C(=O)O)c1ccc(P(=O)(O)O)cc1 (stereo not given),-0.1,111,-0.1,110
CC(C)C1C(=O)NC(CCCN=C(N)N)C(=O)NCC(=O)NC(CC(=O)O)C(=O)NC(Cc2ccccc2)C(=O)N1C (stereo not given),0.0,51,-0.2,35
Cc1c(C(=O)NN2CCCCC2)nn(-c2ccc(Cl)cc2Cl)c1-c1ccc(Cl)cc1,0.1,113,-0.1,105
CCNC1CN(CCCOC)S(=O)(=O)c2sc(S(N)(=O)=O)cc21 (stereo not given),-0.1[3.7 µM],107,-0.1,101
O=C(Nc1cccc(Br)c1)c1cccc(S(=O)(=O)N2CCCCCC2)c1,-0.1,105,0.2,100
Cc1cccc(Oc2cnc(=O)[nH]c2)c1,-0.1,121,0.0,112
Cc1cc(C)c(Nc2ccnc(Nc3ccc(C#N)cc3)n2)c(C)c1,-0.1[3.7 µM],120,-0.5,116
COc1cc(C(=O)NCC2(N(C)C)CCCC2)cc(OC)c1OCc1ccccc1,-0.1,102,-0.1,105
O=C(O)C1CCCN(CCC=C(c2ccccc2)c2ccccc2)C1 (stereo not given),-0.1,110,-0.1,103
C=CC(=O)Nc1cc(Nc2nccc(-c3cn(C)c4ccccc34)n2)c(OC)cc1N(C)CCN(C)C,0.5,45,0.5,27
Cc1csc(-c2nnc(Nc3ccc(Oc4ncccc4-c4ccnc(N)n4)cc3)c3ccccc23)c1,0.1[3.7 µM],45,-0.3,36
O=C1NC(=O)C(=Cc2ccc(-c3ccc(F)cc3O)o2)S1,-0.1[3.7 µM],105,-0.3,98
CC1(C)Cc2c(-c3ccccc3)c(-c3ccc(Cl)cc3)c(CC(=O)O)n2C1,0.1[3.7 µM],106,-0.2,107
CNC(=O)c1ccc(N2C(=S)N(c3cnc(C#N)c(C(F)(F)F)c3)C(=O)C23CCC3)cc1F,-0.2[3.7 µM],103,0.5,100
CNCC(O)c1ccc(O)c(O)c1 (stereo not given),-0.2[3.7 µM],103,-0.1,105
CN1CCN(CCC=C2c3ccccc3Sc3ccc(S(=O)(=O)N(C)C)cc32)CC1,0.2,99,0.4,101

# Full records from above. Order of values: p53 HeLa, p53 HeLa cells 24 h, p53 HeLa p53 24 h, p53 HeLa cells 48 h
# Shown for Cc1csc(-c2nnc(Nc3ccc(Oc4ncccc4-c4ccnc(N)n4)cc3)c3ccccc23)c1 → 0.1[3.7 µM], 45, -0.3, 36
# Shown for CNCC(O)c1ccc(O)c(O)c1 (stereo not given) → -0.2[3.7 µM], 103, -0.1, 105
# Shown for CN1CCN(CCC=C2c3ccccc3Sc3ccc(S(=O)(=O)N(C)C)cc32)CC1 → 0.2, 99, 0.4, 101
# Shown for O=C1NC(=O)C(=Cc2ccc(-c3ccc(F)cc3O)o2)S1 → -0.1[3.7 µM], 105, -0.3, 98
# Shown for COc1cc(C(=O)NCC2(N(C)C)CCCC2)cc(OC)c1OCc1ccccc1 → -0.1, 102, -0.1, 105

# New compounds follow
SMILES,p53 HeLa,p53 HeLa cells 24 h,p53 HeLa p53 24 h,p53 HeLa cells 48 h
O=C(O)CCCc1ccccc1,0.0[3.7 µM],112,-0.2,103
CC(C)N(CCC(=O)c1ccc2ccccc2c1)Cc1ccccc1,0.3[3.7 µM],101,0.1,101
CN(C)CCC=C1c2ccccc2C=Cc2ccccc21,-0.1[3.7 µM],104,-0.2,104
NCCCCNS(=O)(=O)c1ccc2c(Cl)cccc2c1,-0.1,94,-0.1,104
O=C(Nc1cccc2cccnc12)c1ccc(N2C(=O)[C@H]3[C@H](C2=O)[C@H]2C=C[C@@H]3C2)cc1,-0.2,106,-0.1,107
COc1ccc2nc3ccc(OC)cc3c(SCCCN)c2c1,0.6,82,0.8,91
CN(C)CCc1c[nH]c2ccc(Cn3cncn3)cc12,0.8[3.7 µM],106,-0.2,113
Nc1ccccc1NC(=O)c1ccc(CNC(=O)OCc2cccnc2)cc1,14,96,15,57
CN(C)CCOc1ccc(-c2nc(-c3ccc4c(c3)CCC4=NO)c(-c3ccncc3)[nH]2)cc1,0.0,95,0.0,94
CC1CCN(CCC2CCCN2S(=O)(=O)c2cccc(O)c2)CC1 (stereo not given),-0.1,95,-0.1,103
COc1cc(C(=O)NS(=O)(=O)c2ccccc2C)ccc1Cc1cn(C)c2ccc(NC(=O)OC3CCCC3)cc12,0.1,105,0.0,105
CC(C)(C)c1ccc(-c2nc3ccccc3[nH]2)cc1,0.0[3.7 µM],97,-0.3,94
CS(=O)c1ccc(-c2nc(-c3ccc(F)cc3)c(-c3ccncc3)[nH]2)cc1 (stereo not given),-0.2,114,-0.1,109
CCOC(=O)C1=C(C)NC(C)=C(C(=O)OC)C1c1cccc([N+](=O)[O-])c1 (stereo not given),-0.2[3.7 µM],109,-0.4,95
CC(C)(C)c1ccc(S(=O)(=O)NCc2ccc(C(=O)Nc3cccnc3)cc2)cc1,0.0,103,-0.2,41
NC(CS)C(=O)O (stereo not given),-0.1,77,0.0,82
CC(NC(=O)Cc1cc(F)cc(F)c1)C(=O)NC(C(=O)OC(C)(C)C)c1ccccc1 (stereo not given),0.0[3.7 µM],110,-0.2,101
O=C(Nc1cc(Cl)cc2c1[nH]c1cnccc12)c1cccnc1,0.0,109,-0.1,110
O=C(NCCO[N+](=O)[O-])c1cccnc1,0.0[3.7 µM],99,0.0,99
Nc1nc2c(ncn2COCCO)c(=O)[nH]1,-0.1[3.7 µM],101,-0.3,102
C=CC(=O)Nc1ccc(CN(C(=O)Nc2c(Cl)c(OC)cc(OC)c2Cl)c2cc(Nc3ccc(N4CCN(C)CC4)cc3)ncn2)cc1,10,43,29,27
O=C1CC2(CCCC2)CC(=O)N1CCNCC1COc2ccccc2O1 (stereo not given),-0.3,99,0.1,104
CN(C)Cc1ccc(S(=O)(=O)n2ccc(C=CC(=O)NO)c2)cc1,2.6[3.7 µM],86,5.0,84
CC=C(C)C(=O)OC1C(C)=C2C3CC(=O)[C@@](C)(O)[C@@]3(O)C(OC(=O)CCC)C[C@@](C)(OC(C)=O)C2C1OC(=O)CCCCCCC (stereo not given in full),7.8,57,4.2,29
O=C1NC(=NCc2cccs2)SC1=Cc1ccc2ncccc2c1,4.6,61,2.2,51
CC1OC(Oc2c(-c3cc(O)c(O)c(O)c3)oc3cc(O)cc(O)c3c2=O)C(O)C(O)C1O (stereo not given),-0.3[3.7 µM],98,-0.5,99
O=C(N[C@@H](CO)[C@@H](O)c1ccc([N+](=O)[O-])cc1)C(Cl)Cl,0.0,106,0.2,104
NS(=O)(=O)C#Cc1ccccc1,-0.3[3.7 µM],91,-0.5,95
O=c1c(O)c(-c2ccccc2)oc2ccccc12,-0.1,99,-0.1,97
CN1CCN(c2ccc3nc(-c4c(N)c5c(F)cccc5[nH]c4=O)[nH]c3c2)CC1,0.7,82,0.2,70
NC(N)=NN=Cc1c(Cl)cccc1Cl,-0.2[3.7 µM],107,-0.3,103
CC1(C)C(N(O)C(=O)Nc2ccc(Cl)cc2)N(c2ccc(Cl)cc2)C(=O)N1CC(=O)NN=CC=Cc1ccc([N+](=O)[O-])o1 (stereo not given),50,70,13,38
Cn1cc(C2=C(c3cn(CCCSC(=N)N)c4ccccc34)C(=O)NC2=O)c2ccccc21,71*,39*,47*,29*

# For convenience, 6 of the compounds above:
SMILES,p53 HeLa,p53 HeLa cells 24 h,p53 HeLa p53 24 h,p53 HeLa cells 48 h
NS(=O)(=O)C#Cc1ccccc1,-0.3[3.7 µM],91,-0.5,95
O=c1c(O)c(-c2ccccc2)oc2ccccc12,-0.1,99,-0.1,97
CN1CCN(c2ccc3nc(-c4c(N)c5c(F)cccc5[nH]c4=O)[nH]c3c2)CC1,0.7,82,0.2,70
NC(N)=NN=Cc1c(Cl)cccc1Cl,-0.2[3.7 µM],107,-0.3,103
CC1(C)C(N(O)C(=O)Nc2ccc(Cl)cc2)N(c2ccc(Cl)cc2)C(=O)N1CC(=O)NN=CC=Cc1ccc([N+](=O)[O-])o1 (stereo not given),50,70,13,38
Cn1cc(C2=C(c3cn(CCCSC(=N)N)c4ccccc34)C(=O)NC2=O)c2ccccc21,71*,39*,47*,29*

# Bioassay records: PubChem BioAssay, ICCB-Longwood Screening Facility, Harvard Medical School

# Not all compounds are listed; the hit share may differ from the screen's.
